HSD17B inhib = HSD17B dehydrogenase inhibition; Q99714; recombinant HSD17B10, NADH fluorescence kinetic; many of its hits are not listed in these tables; Potency, µM (doses to about 57.1 µM), for the others: top-dose activity change, negative = inhibition, hits mostly inhibitors; actives 7.6% (n = 75,000); AID 893; active = well fitted inhibition curve with a large enough effect; inconclusive = small, poorly fitted or top-dose-only effect; inactive = no such curve, though single readings can be large or run the other way;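 note: the protocol describes HADH2 (HSD17B10) and not the HSD17B4 of the title; nearly all actives have a fitted effect of over 70% in size; most hits overshoot -100% by far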
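Activity followed as NADH fluorescence increase (ex 360, em 450 nm) every 30 seconds for 4 min, using final 90 uM beta-hydroxybutyryl CoA and 1 mM NAD+. Recombinant His-tagged enzyme, 20 nM, pH 9.0 Tris buffer, 15 min compound preincubation.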
Numbers without * were called inactive; ? = inconclusive; & = joins results of further samples; [ ] = dose if it differs, or a comment. % is set by controls: 0 for no effect and ±100 for the full control effect; potency is the fitted concentration of half-maximal effect. These rows are one share of the data; the hit share may differ from the screen's.

SMILES	HSD17B inhib
CCOC(=O)N1CCC(NC(=O)c2cccc3c2C(=O)N(c2ccc(OC)cc2)C3)CC1	16µM*
COC(=O)Cn1c(=O)c2c(nc(Br)n2CC(=O)OC)n(C)c1=O	0%
Cc1ccc(Oc2ccc(N)cc2)cc1	2%
COc1cc(-c2nc(-c3cccc(C)c3)no2)cc(OC)c1OC	?
CCN(Cc1ccccc1)C(c1ccccn1)c1nnnn1C(C)(C)CC (stereo unspecified)	2%
COc1ccc(C(CNC(=O)C2CC(=O)N(Cc3ccc(C)cc3)C2)N(C)C)cc1 (stereo unspecified)	9%
c1ccn2cc(CSC3=NCCS3)nc2c1	11%
CCOC(=O)c1cnn(-c2cc(C)c3ccccc3n2)c1N	1%
CCC(=O)N1CCc2cc(S(=O)(=O)CCC(=O)Nc3cccc(F)c3)ccc21	-10%
CC12CC(c3ccccc3O1)N(C(=O)c1ccco1)C(=O)N2c1ccccc1 (stereo unspecified)	-11%
O=S1(=O)CCN=C2SC3=C(CCCC3)N21	4%
COC(=O)C1=C(C)NC(C)=C(C(=O)OC(C)C)C1c1cccc2nonc12 (stereo unspecified)	-6%
O=C(Cn1ncn2c(cc3ccccc32)c1=O)NCCC1=CCCCC1	32µM*
CC1(C)C(=O)Nc2ccccc2N1C(=O)COc1ncnc2ccccc12	-3%
COC(=O)[C@@]1(Cc2ccc(F)cc2)[C@H]2c3cc(C(=O)N(C)C)n(Cc4ccc(Cl)c(C(F)(F)F)c4)c3C[C@H]2CN1C(=O)c1ccccc1	-5%
COCc1nnc(NC(=O)c2ccc(NC(C)=O)cc2)s1	-4%
CCc1[nH]nc2c1C(c1ccncc1)C(C#N)=C(N)O2 (stereo unspecified)	4%
Cc1cc(NC(=O)CSc2nnc(Cc3cccn3C)n2CCc2ccccc2)no1	9%
Cn1c(SCC(=O)NCCc2ccccc2)nnc1-c1ccncc1	5%
CC(C)(C)c1ccc(-c2conc2N)cc1	4%
C=CCn1c(SCC(N)=O)nnc1-c1ccccc1O	12%
COc1cccc(OC)c1-c1nn2c(-c3cc(-c4ccccc4)n[nH]3)nnc2s1	4%
C=CC[C@@H]1C=C[C@H](O/N=C2\c3cc(OC)ccc3O[C@H](c3cccc(OC)c3)[C@H]2O)[C@H](CO)O1	-4%[11.4 µM]
COc1cc(C2C(C(N)=O)=C(C)Nc3nc(CCCO)nn32)cc(OC)c1OC (stereo unspecified)	-2%
O=C(c1ccc(Cl)cc1)N1CCCOC1	-6%
C=CCn1c(SC2CCOC2=O)nc2scc(C3CC3)c2c1=O (stereo unspecified)	-17%
CCOC(=O)C1CCCN(c2ncnc3c2oc2ccccc23)C1 (stereo unspecified)	4%
c1nc(N2CCCCCC2)c2[nH]cnc2n1	-5%
CC1CCN(C(=O)Cn2c(=O)n(CCc3ccccc3)c(=O)c3ccccc32)CC1	-4%
COc1ccc(N2CCN(C(=O)c3cccc(Cn4cc(Cl)cn4)c3)CC2)cc1	-1%
COc1ccccc1CNS(=O)(=O)c1ccc(NC(C)=O)cc1	4%
COC(=O)c1nnn(CC(=O)Nc2cc(Cl)ccc2C)c1C(=O)OC	-11%
CCCCOCCCNC(=O)c1c(-c2ccccc2)noc1C	-8%
O=C(c1ccco1)N1CCN(S(=O)(=O)c2ccc3c(c2)CCN3C(=O)C2CCC2)CC1	2%
Cc1cc(C)c(S(=O)(=O)N2CCN(C)CC2)c(C)c1	2%
COCCN1C(=O)c2ccccc2C(C(=O)NCCCN2CCCC2)C1c1c[nH]c2ccccc12 (stereo unspecified)	19%
Cc1cc(NCCN2CCOCC2)n2ncc(-c3ccccc3)c2n1	7%
CCn1nnnc1NCc1ccc(N2CCCC2)cc1	1%
CCOC(=O)c1ccccc1NC(=O)CCNC(=O)Cn1cnc2ccccc2c1=O	?
CC(C)(C)C1=C[C@@H](CO)C[C@@H](CO)C1	-9%
CCOC(=O)c1cc2n(n1)C(C(F)(F)F)CC(C)N2 (stereo unspecified)	-9%
Cn1c(C(=O)OCC(=O)NCC2CCCO2)cc2sccc21 (stereo unspecified)	4%
c1ccc(-c2noc(CSc3nc4ccccc4o3)n2)cc1	-12%
Cc1ccc(S(=O)(=O)NC(C)(C)CSc2nncn2N)cc1	-6%
COc1cccc(C(=O)CSc2nc3ccccc3n2CC(=O)N2CCOCC2)c1	-2%
Cc1cc(C)cc(OCc2nnc(SCC(=O)N3CCN(c4ccccc4)CC3)o2)c1	5%
O=C(N1CCOCC1)N1c2ccccc2CC(N2CCOCC2)c2ccccc21 (stereo unspecified)	0%
NC(=O)N/N=C\c1ccc([N+](=O)[O-])o1	-6%[25.6 µM]
NC(=O)CSc1nnnn1CC(CC(=O)O)c1ccccc1 (stereo unspecified)	-4%
O=C(NCc1cccnc1)c1ccc(COc2ccccc2Br)o1	4%

Look-ups from the results shown:
Under HSD17B inhib, `CCCCOCCCNC(=O)c1c(-c2ccccc2)noc1C` has the entry -8%
Under HSD17B inhib, `Cn1c(C(=O)OCC(=O)NCC2CCCO2)cc2sccc21` (stereo unspecified) has the entry 4%
Under HSD17B inhib, `COCCN1C(=O)c2ccccc2C(C(=O)NCCCN2CCCC2)C1c1c[nH]c2ccccc12` (stereo unspecified) has the entry 19%

Some of these compounds in order of molar mass, ascending.
SMILES	HSD17B inhib
CC(C)(C)C1=C[C@@H](CO)C[C@@H](CO)C1	-9%
CCn1nnnc1NCc1ccc(N2CCCC2)cc1	1%
CCOC(=O)c1cc2n(n1)C(C(F)(F)F)CC(C)N2 (stereo unspecified)	-9%
Cc1cc(C)c(S(=O)(=O)N2CCN(C)CC2)c(C)c1	2%
c1ccc(-c2noc(CSc3nc4ccccc4o3)n2)cc1	-12%
CCCCOCCCNC(=O)c1c(-c2ccccc2)noc1C	-8%
NC(=O)CSc1nnnn1CC(CC(=O)O)c1ccccc1 (stereo unspecified)	-4%
Cn1c(C(=O)OCC(=O)NCC2CCCO2)cc2sccc21 (stereo unspecified)	4%
CCOC(=O)C1CCCN(c2ncnc3c2oc2ccccc23)C1 (stereo unspecified)	4%
COc1ccccc1CNS(=O)(=O)c1ccc(NC(C)=O)cc1	4%
Cc1cc(NCCN2CCOCC2)n2ncc(-c3ccccc3)c2n1	7%
Cc1ccc(S(=O)(=O)NC(C)(C)CSc2nncn2N)cc1	-6%
C=CCn1c(SC2CCOC2=O)nc2scc(C3CC3)c2c1=O (stereo unspecified)	-17%
COC(=O)c1nnn(CC(=O)Nc2cc(Cl)ccc2C)c1C(=O)OC	-11%
O=C(NCc1cccnc1)c1ccc(COc2ccccc2Br)o1	4%
CC1CCN(C(=O)Cn2c(=O)n(CCc3ccccc3)c(=O)c3ccccc32)CC1	-4%
COc1ccc(N2CCN(C(=O)c3cccc(Cn4cc(Cl)cn4)c3)CC2)cc1	-1%
CCOC(=O)c1ccccc1NC(=O)CCNC(=O)Cn1cnc2ccccc2c1=O	?
COc1cccc(C(=O)CSc2nc3ccccc3n2CC(=O)N2CCOCC2)c1	-2%
O=C(c1ccco1)N1CCN(S(=O)(=O)c2ccc3c(c2)CCN3C(=O)C2CCC2)CC1	2%
COCCN1C(=O)c2ccccc2C(C(=O)NCCCN2CCCC2)C1c1c[nH]c2ccccc12 (stereo unspecified)	19%

(continued)
SMILES	HSD17B inhib
COC(=O)C1=C(C)[C@@H](O)[C@@H](C)[C@H](c2c(OC)c(OC)c(C)c(OC)c2OC)O1	3%[11.4 µM]
OCCSc1c(F)c(SCCO)c(SCCO)c(F)c1SCCO	2%
O=C(Nc1ccc(Cn2nnc3ccccc32)cc1)c1ccco1	?
O=C(O)c1cccc(S(=O)(=O)N2Cc3ccccc3C2)c1	9%
O=C(O)C1C(c2ccccc2)C(C(=O)N2CCOCC2)C1c1ccccc1 (stereo unspecified)	-5%
CC1CC(C)CN(CCCNC(=O)C2CCCN(c3nnc(N4CCCC4=O)s3)C2)C1 (stereo unspecified)	-8%
O=C1C(c2ccncc2)N(CCC2=CCCCC2)C(=O)CN1C1CCCCC1 (stereo unspecified)	0%
COC(=O)CC1Oc2cc3oc4c(c3cc2O1)C(=O)CC(C)(C)C4 (stereo unspecified)	11%
Cc1cc(NC(=O)C2CC(c3ccc(F)cc3)=NO2)no1 (stereo unspecified)	8%
Cc1noc(/C=C/N(C)C)c1S(=O)(=O)N1CCCC(C(=O)Nc2ccc3c(c2)OCO3)C1 (stereo unspecified)	-8%
CC(C)(C)NC(=O)C1CN(S(=O)(=O)c2ccccc2)CCN1S(=O)(=O)c1ccccc1 (stereo unspecified)	-4%
O=S(=O)(c1ccc2c(c1)OCCO2)N1CCN(c2cccc(Cl)c2)CC1	-2%
Cc1cc(C)c(S(=O)(=O)N2CCCCC2)c(C)c1-n1ncnn1	5%
O=C(O)C1CC1c1ccc(Br)cc1 (stereo unspecified)	-2%
O=C(COC(=O)c1ccccc1Nc1ccccc1)NCc1ccco1	?
O=C(c1cccc(Cl)c1)N1CCN(c2ccccn2)CC1	-4%
C=CCn1c(SCC(=O)NCCOC)nc2scc(-c3ccco3)c2c1=O	?
CCc1ccccc1NS(=O)(=O)c1ccc2[nH]cc(C(=O)NCc3ccco3)c(=O)c2c1	32µM*
Cc1ccc(-c2csc(/C(C#N)=C(\O)CN3CCN(C(=O)c4ccco4)CC3)n2)cc1	-20%
O=C(CN1CCN(S(=O)(=O)c2ccc(Br)cc2)CC1)Nc1ccc2c(c1)OCO2	-6%
CS(=O)(=O)Nc1cccc(-c2nc(NC3CC3)c3ccccc3n2)c1	-12%
CC(C)(C)SCCNC(=O)COc1ccc(Cl)cc1	-2%
CCOC(=O)c1sc(C(=O)OCC)c(OCCO)c1OCCO	25µM*
O=C(C1Cc2ccccc2CN1S(=O)(=O)c1ccc(F)cc1)N1CCCCC1 (stereo unspecified)	-1%
COc1ccc(-c2nnc3ccc(SCC(=O)N4CCCCC4)nn23)cc1OC	15%

Arranged by molecular weight (descending): part of the list above
SMILES	HSD17B inhib
Cc1noc(/C=C/N(C)C)c1S(=O)(=O)N1CCCC(C(=O)Nc2ccc3c(c2)OCO3)C1 (stereo unspecified)	-8%
CC1CC(C)CN(CCCNC(=O)C2CCCN(c3nnc(N4CCCC4=O)s3)C2)C1 (stereo unspecified)	-8%
O=C(C1Cc2ccccc2CN1S(=O)(=O)c1ccc(F)cc1)N1CCCCC1 (stereo unspecified)	-1%

Going on with the list:
SMILES	HSD17B inhib
CC(=O)c1ccc(C(=O)Nc2ccc(N3CCOCC3)cc2)cc1	15%
CCOC(=O)c1c(NC(=O)CC)sc(C(C)=O)c1C	-1%
Cc1nc(SCc2nc3ccccc3[nH]2)c2oc3ccccc3c2n1	?
CCCN(CCC)C(=O)C1CCN(c2cc(C)nc3c(-c4ccc(OC)c(OC)c4)c(C)nn23)CC1	?
Cc1cc(C(=O)N(C)Cc2ccc(Br)cc2)no1	2%
NC1(C(=O)O)CC1	-1%&5%
O=C(COc1cccc(NC(=O)c2ccco2)c1)c1ccc(F)cc1	?
COCCCNc1oc(-c2ccccc2OC)nc1C#N	32µM*
COc1ccc(Cl)c(Cn2c(NCc3ccccn3)nc3c2c(=O)n(C)c(=O)n3C)c1	11%
Cn1c(SCC(=O)c2ccccc2)nnc1-c1cnccn1	-12%
CN(C(=O)COc1ccc(C(C)(C)C)cc1)C1CCS(=O)(=O)C1 (stereo unspecified)	0%
Cc1nnc2ccc(N3CCN(c4cccc(C(F)(F)F)c4)CC3)nn12	-7%
Cc1cc(C)cc(N(CC(=O)NCC2CCCO2)S(=O)(=O)c2c(C)noc2C)c1 (stereo unspecified)	5%
CCCCC(=NCCO)C1=C(O)C(C(=O)OC)C(C)(C)CC1=O (stereo unspecified)	12%
CC1(C)CC(=O)C2=C(C1)NC(=O)CC2c1ccccc1F (stereo unspecified)	-4%
Cc1ccc(CCN2CC(C(=O)NCCCN(C)Cc3ccccc3)CC2=O)cc1 (stereo unspecified)	-3%
CCN1C(=O)/C(=c2\o/c(=C3\C=Cc4ccccc4N3CC)c(=O)n2CC)SC1=S	2%
N#CCCN1CCN(C(=S)c2ccc(-c3ccc(Cl)cc3)o2)CC1	?
Nc1nnnn1/N=C/c1ccccc1OCc1ccccc1	?
COc1ccccc1C(=O)Nc1ccc2c(c1)nc(CN1CCN(C(C)=O)CC1)n2C	41%[activator]
O=C1C2C3C=CC(C3=C3CCCCC3)C2C(=O)N1Cc1ccccc1 (stereo unspecified)	-10%
Cc1ccc(NC(=O)CS(=O)CC(=O)N(CC(=O)NC2CCCC2)c2cccc(C)c2C)cc1 (stereo unspecified)	-3%
COC(=O)[C@@]1(Cc2ccc(F)cc2)[C@H]2c3cc(C(=O)N(C)C)n(CCc4ccc(O)c(O)c4)c3C[C@H]2CN1C(=O)c1ccccc1	32µM*
Cc1ccsc1C(=O)Nc1nnc(-c2ccco2)o1	-26%
CC1(C)N=C(N)N=C(N)N1c1cccc(OCc2cccc([N+](=O)[O-])c2)c1	7%[11.4 µM]
COc1ccc2[nH]c(=O)c(CN(C(=O)NC3CCCCC3)C3CCCCC3)cc2c1	-16%

Compound activity from PubChem BioAssay.
